LANA-H2B inh: blockers of LANA interaction with H2A/H2B – biochemical, FP readout, HTS, primary screen | Protein LANA1 (Human herpesvirus 8 type P (isolate GK18)), Q9QR71 | inhibition, % (no concentration beside the values) | AID 2629, 2010 | cell-free LANA-H2A/H2B peptide, fluorescence polarization | hit rate 0.6% among 320,000; in the data active means inhibition mostly above about 10%, no sharp cut-off; inactive means mostly below about 6.7%;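 further: stock transfer was 7.5 nL into about 10 µL; 0% = median of vehicle wells and 100% = median of positive control wells; one replicate is shown; the record names a cut of 25% in any replicate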
Calb FLC: C. albicans growth inhibition with fluconazole, primary screen, CaCi-2 strain, Alamar Blue fluorescence; C. albicans CaCi-2 (fluconazole-resistant clinical isolate) + fluconazole, 48 h; growth inhibition, % (concentration not given with the values); hit rate 0.57% among 300,000; AID 1979, 2009;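 active means most replicates above 75%; inconclusive means exactly half above 75%; inactive means most below 75%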;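 further: all wells also contain fluconazole at 8 µg/ml as a sub-toxic cotreatment; 0% = median of DMSO wells and 100% = median of geldanamycin control wells; wells of about 8 µL received 7.5 nL stock; the first replicate is given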
Bfl-1 A1 inh: caspase 3/7 activation in MEF A1-2A-BIM cells, primary screen, A1 inhibitor project, cell-based, luminescence, HTS. Caspase-Glo 3/7 luminescence, 3 h; percent of clofoctol response, vehicle zero. hit rate 0.066% among 330,000. caspase activation, % (concentration not given with the values). AID 2462, 2010;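 active means over half of replicate activation scores above 10%, or exactly half above 10 with the replicate mean above 10; inconclusive means replicate mean below 10 yet half the replicates above 10; inactive means over half of replicates below 10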;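 further: wells of about 30 µL received 50 nL stock; many hits fall short of the cut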
Vif TR-FRET: inhibitors of Vif binding to APOBEC3G peptide, primary screen, biochemical, TR-FRET, GST-Vif 1-94, biotin-A3G peptide, dose response retest (AID 1117319) | TR-FRET GST-Vif / biotin-A3G peptide binding; higher % means a stronger effect; test concentration not given here; strong numbers were not always called active | hit rate 0.57% among 260,000 | Virion infectivity factor (Human immunodeficiency virus type 1 group M subtype B (isolate … | one-dose inhibition, %; IC50 in µM for titrated hits;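 active means above the screen mean plus three standard deviations and confirmed in dose response; inconclusive means results disagree or hit not tested in dose response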;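 further: Vif residues 1-94 fused to GST binding biotinylated APOBEC3G peptide 110-148; 0% = full assay without inhibitor and 100% = GST in place of GST-Vif; retest series ran down from 100 µM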
Beta apoptosis: inhibitors of cytokine-induced beta cell apoptosis, primary screen, luminescence | hit rate 0.8% among 300,000 | INS-1E cytokine-induced death, ATP luminescence, 48 h; percent of positive-control rescue, neutral wells zero | protection from apoptosis, % (test concentration not listed);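 active means all replicates at 75% or more, or half of them and the mean; inconclusive means half reach 75% but not the mean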;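 further: 0% = cytokine-treated negative control wells and 100% = positive control rescue; higher means more ATP so stronger rescue from cytokine killing; wells of about 40 µL received 100 nL stock; the first replicate is given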
MLL AF4-AF9 inh: inhibitors of AF4 peptide binding to AF9, primary screen, biochemical, AlphaScreen, biotin-AF4 peptide, FLAG-AF9, single point. AID 651704, 2012. Protein AF-9 (Homo sapiens), P42568. hit rate 0.47% among 350,000. inhibition, % at 10 µM;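 active means every replicate reaching a set inhibition limit, whatever the replicate mean, cut at about 25% in these data; inconclusive means mean inhibition reaches that limit but some replicates miss it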;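 further: 0% = plate neutral control median and 100% = total signal loss; the record names both 10 and 1 µM as test concentration; the first replicate is given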
Target sequence (P42568 whole entry, looked up): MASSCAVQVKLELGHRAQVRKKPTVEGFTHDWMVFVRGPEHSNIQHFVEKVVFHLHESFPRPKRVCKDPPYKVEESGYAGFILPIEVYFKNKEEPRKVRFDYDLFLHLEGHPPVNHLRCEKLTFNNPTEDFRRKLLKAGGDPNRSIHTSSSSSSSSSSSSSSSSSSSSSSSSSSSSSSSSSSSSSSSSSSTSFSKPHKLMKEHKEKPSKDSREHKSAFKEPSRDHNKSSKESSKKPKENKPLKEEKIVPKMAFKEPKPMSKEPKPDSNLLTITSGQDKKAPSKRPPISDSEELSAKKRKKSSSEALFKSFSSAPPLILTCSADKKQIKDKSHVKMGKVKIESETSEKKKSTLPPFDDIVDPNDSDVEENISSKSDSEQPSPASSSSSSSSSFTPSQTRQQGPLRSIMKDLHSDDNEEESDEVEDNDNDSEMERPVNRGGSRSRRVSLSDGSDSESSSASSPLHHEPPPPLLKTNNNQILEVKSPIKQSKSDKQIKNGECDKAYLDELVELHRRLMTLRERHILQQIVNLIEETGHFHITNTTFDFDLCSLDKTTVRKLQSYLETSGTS
T cruzi repl: inhibitors of intracellular T. cruzi growth, primary screen, luminescence, NIH3T3 host cells; AID 1885, 2009; T. cruzi beta-gal in NIH3T3, 90 h; hit rate 1.4% among 300,000; inhibition, % (no concentration beside the values);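 active means mean inhibition across valid replicates above about 55%, limit read from the data; inconclusive means mean below that limit but half or more replicates reach it; inactive means mean below it, under half of replicates reach it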;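 further: signal also drops with host cell toxicity which is not excluded here; 0% = plate median of DMSO wells and 100% = zero luminescence signal; higher percent means less beta-gal luminescence so fewer parasites; stock transfer was 50 nL into about 50 µL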
RanGTP-Imp inh: inhibitors of RanGTP-importin-beta interaction, primary screen, biochemical, FRET, CFP-Ran, YFP-importin-beta, homogeneous | Ran GTPase (GTP-bound) - importin-beta complex | cell-free CFP-Ran/YFP-importin-beta FRET ratio | inhibition, % (concentration not given with the values) | hit rate 1.1% among 300,000 | AID 2216, 2009;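 active means most replicates above 15%; inconclusive means exactly half above 15%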;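 further: 0% = DMSO wells and 100% = Ran loaded with GDP instead of GTP; wells of about 40 µL received 100 nL stock; the first replicate is given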
The depositor's hits bear a star; ? = inconclusive; nt = no result given. Compounds as they come; any-hit rate near 4.3%.

| mol | MLL AF4-AF9 inh | Bfl-1 A1 inh | RanGTP-Imp inh | Calb FLC | T cruzi repl | Beta apoptosis | LANA-H2B inh | Vif TR-FRET |
| --- | --- | --- | --- | --- | --- | --- | --- | --- |
| Cc1ncc([N+](=O)[O-])n1CCN1C(=O)c2ccccc2C1=O | -3.7 | 0.8 | 0.0 | -8 | -7 | 1 | -5.5 | -5% |
| CN(C)S(=O)(=O)c1ccc2c(c1)/C(=C/c1cc3c([nH]1)CCCC3)C(=O)N2 | -2.6 | -1.4 | nt | nt | nt | 18 | 0.9 | nt |
| COc1ccc(NC(=S)Nc2cccnc2)c(OC)c1 | 0.3 | 1.7 | 2.4 | -12 | -11 | -7 | 3.8 | ? |
| Cc1cc(=O)n2[nH]c(-c3ccc(Cl)cc3)cc2n1 | nt | -1.5 | -7.0 | -16 | 36 | -1 | 1.4 | 22% |
| Cc1[nH]c2ccc(C(=O)N3CCN(C)CC3)cc2c1C | 3.0 | -1.0 | 0.3 | nt | 1 | -2 | -2.9 | 6% |
| NC(=O)[C@H]1CC2(CC(c3cccc(NC(=O)CC(c4ccccc4)c4ccccc4)c3)=NO2)CN1C(=O)c1ccccc1C(=O)c1ccccc1 (stereo not given in full) | -1.3 | 1.1 | -1.9 | -1 | 53 | 7 | -1.2 | 0% |
| CN(CCO)c1cc(N(C)CCO)c([N+](=O)[O-])cc1[N+](=O)[O-] | 1.1 | -0.9 | -2.2 | -3 | 5 | -14 | -10 | -7% |
| COc1ccc(C(=O)CN2CCN(c3ccc(Cl)cc3)CC2)cc1OC | -1.4 | 0.1 | 1.2 | 26 | -1 | 0 | 4.8 | -4% |
| O=C(Cn1c(/C=C/c2ccccc2)nc2ccccc21)Nc1ccc(F)cc1 | nt | -0.7 | -1.8 | 17 | 20 | 0 | -3.1 | 64% |
| N#Cc1ccc(C(=O)NNC(=O)c2cccc(S(=O)(=O)N3CCOCC3)c2)cc1 | 1.6 | -0.1 | nt | nt | nt | -6 | 0.9 | nt |
| Cc1ccc(NC2(C#N)C(=O)Nc3ccccc32)cc1 (stereo not given) | nt | 0.0 | -0.8 | -26 | -20 | -4 | -3.4 | -3% |
| Cc1ccc(S(=O)(=O)NCc2ccco2)cc1C(N)=O | -4.7 | 0.0 | -1.9 | -2 | -2 | nt | -0.4 | nt |
| CC(=O)Nc1cccc(OCC(=O)NS(=O)(=O)c2ccc(Cl)cc2)c1 | nt | 0.2 | nt | 12 | nt | -2 | -0.1 | 10% |
| Cc1ccc(S(=O)(=O)NCC2CCCO2)cc1 (stereo not given) | -11 | 0.2 | -1.7 | -1 | 1 | -6 | 4.1 | -4% |
| COc1ccc(-c2cc(C(F)(F)F)n3ncc(C(=O)N4CCCCC4c4cccnc4)c3n2)cc1 (stereo not given) | -5.1 | -0.5 | 0.6 | 0 | 49 | 11 | 0.7 | -4% |
| OCC1(Cc2cccc(Cl)c2)CCCN(Cc2sc(N3CCCC3)nc2Cl)C1 (stereo not given) | 6.0 | -0.3 | -0.3 | -4 | 45 | 10 | 1.2 | nt |
| CS(=O)(=O)Nc1ccc(C(=O)Nc2cccc([N+](=O)[O-])c2)cc1 | -0.6 | 0.2 | -12 | 5 | 1 | 1 | 0.3 | 12% |
| CSc1nc(-c2ccc(C)cc2)nc(N)c1C#N | nt | 0.1 | -4.8 | 62 | 18 | -7 | 0.1 | 4% |
| CNC(=O)CN1C(=O)CSc2nc(C)cc(C)c21 | -2.3 | 0.8 | 3.4 | 0 | 5 | nt | -0.8 | ? |
| COc1cccc(-c2nc(CS(=O)(=O)CC(=O)NC3CCCCC3C)c(C)o2)c1 (stereo not given) | -1.1 | 0.4 | -0.7 | -3 | 13 | -4 | -0.6 | nt |
| CCc1ccc(-n2c(SCc3c(C)noc3C)nnc2-c2ccncc2)cc1 | nt | 3.0 | 0.9 | 1 | 52 | 0 | -7.0 | 63% |
| NNC(=O)c1csc(-c2ccc(C(F)(F)F)cc2Cl)n1 | -8.5 | -1.0 | 3.0 | 11 | -33 | -5 | 1.8 | 1% |
| N#CCSc1nnc(COc2ccc3ccccc3c2)o1 | nt | 0.7 | -1.7 | 2 | 2 | -10 | 0.0 | 3% |
| O=C(OCC(=O)N1CCCC1=O)c1cc(S(=O)(=O)N2CCOCC2)ccc1F | -0.3 | -0.2 | 1.8 | nt | 2 | -2 | -0.4 | -9% |
| O=C(COC(=O)C1CCC1)Nc1cc(S(=O)(=O)N2CCCCC2)ccc1Cl | 0.0 | 0.4 | 2.7 | 5 | -19 | -3 | 1.7 | 0% |
| COc1ccc(C(=O)N2CCCC(CNC(=O)c3ccc(F)cc3)C2)cc1OC (stereo not given) | -1.2 | nt | 3.1 | -2 | -18 | nt | nt | nt |
| C/C(=N\S(=O)(=O)c1ccc(C)cc1)N1CCN(S(=O)(=O)c2ccccc2)C1 | nt | -1.2 | -1.2 | 15 | 3 | nt | -2.7 | 4% |
| C[n+]1cccc2c(Br)ccc([O-])c21 | -11 | -0.1 | 5.8 | -4 | -13 | -21 | 2.0 | nt |
| CCc1cccc(OCCCCNCCO)c1 | nt | 2.8 | -3.8 | 7 | -17 | nt | -4.5 | 16% |
| CC(C)C(=O)Nc1nc2ccc(S(C)(=O)=O)cc2s1 | 0.1 | 0.2 | 1.1 | -1 | 22 | 1 | -3.4 | nt |
| CCCc1cc(=O)[nH]c(SCC(=O)Nc2ccc(Br)cc2)n1 | -1.8 | -0.1 | 0.3 | 2 | -3 | -1 | 2.9 | -6% |
| COc1ccc(CNc2nc3nc(C)c(Cl)c(=O)n3[nH]2)cc1 | 0.2 | -1.8 | 8.2 | 4 | 1 | -1 | 4.6 | 3% |
| O=C(CSc1nnc2scc(-c3ccc(Cl)cc3)n12)NCc1ccc2c(c1)OCO2 | 1.0 | -0.9 | 4.0 | -32 | 4 | 6 | -4.3 | 32% |
| COC(=O)c1ccc(Oc2nc(NC(C)C)nc(SC)n2)cc1 | nt | 1.0 | -1.1 | -5 | -10 | 3 | -2.4 | 7% |
| CC1(C)Cc2c(cnn2-c2ccc(F)cc2)C(NC(=O)C2=NNC(=O)CC2)C1 (stereo not given) | -1.6 | 0.3 | -0.3 | -1 | 2 | -1 | 1.2 | nt |
| c1ccc(CCC2CCCCN2Cc2cn[nH]c2-c2cc3ccccc3o2)nc1 (stereo not given) | 7.0 | 0.1 | -1.0 | 0 | 41 | 17 | 1.7 | 0% |
| O=c1[nH]ncc(N/N=C\c2ccncc2)c1Cl | -1.5 | -0.5 | 0.5 | 17 | -16 | -5 | 1.8 | -6% |
| O=C(NCc1ccccc1Cl)C1CC(=O)N(Cc2ccccc2)C1 (stereo not given) | -2.4 | 0.5 | -0.3 | -4 | -6 | 5 | 4.7 | -4% |
| CCn1nc(C)cc1C(=O)N1CCCC(Nc2ccc(C(C)C)cc2)C1 (stereo not given) | 1.0 | nt | -1.9 | -3 | 3 | nt | nt | nt |
| Cn1c(=O)c2c(nc(SCCN3CCOCC3)n2Cc2ccccc2Cl)n(C)c1=O | -34 | 1.6 | 0.2 | -2 | -9 | -1 | 1.5 | 26% |
| COCCN(Cc1cc2cc3c(cc2nc1Cl)OCO3)C(C)=O | -2.8 | -0.6 | 11 | ? | -5 | -4 | 7.2 | 5% |
| CCCOc1c(Br)cc(C2C3=C(CCCC3=O)N(CC)C3=C2C(=O)CCC3)cc1OC | -14 | 0.7 | 96* | 4 | 25 | nt | 1.0 | nt |
| COc1ccc(CC2(CO)CCN(Cc3ccc4c(c3)CCO4)CC2)cc1 | -0.3 | 0.5 | -0.6 | -4 | 16 | -3 | -0.3 | 3% |
| CC(C)c1ccc(NC(=O)C2C3C=CC4(CN(Cc5cccnc5)C(=O)C24)O3)cc1 (stereo not given) | -2.0 | ? | -2.1 | -7 | -8 | -5 | 0.5 | -2% |
| COc1ccc(C(=O)Cn2cc[n+](C)c2)cc1 | -0.5 | 0.0 | 0.1 | -7 | -4 | -4 | 1.0 | nt |
| COc1ccc(CC(=O)Nc2c3c(nn2-c2cccc(C)c2C)CS(=O)C3)cc1OC (stereo not given) | nt | 0.3 | -0.4 | 1 | -21 | -8 | -1.6 | 28% |
| Oc1c(Cl)cc(Cl)cc1/C=N/c1ncn[nH]1 | -1.5 | -0.8 | 4.8 | 9 | -6 | -5 | 0.2 | -1% |
| COc1ccc(-c2nnc3ccc(SCC(=O)NCc4ccco4)nn23)cc1 | nt | -0.9 | 4.5 | 11 | 8 | -10 | -5.7 | 4% |
| O=C(c1c(F)cccc1F)N1CCN(c2cccc(C(F)(F)F)c2)CC1 | nt | 1.7 | -0.9 | ? | 10 | 7 | 1.1 | -3% |
| O=C(Nc1ccccn1)c1ccc(=O)[nH]n1 | nt | 0.0 | -2.0 | -5 | -6 | 2 | 3.8 | -1% |
| O=C(c1cccnc1)C1CCCN(Cc2nc(Cc3ccccc3F)no2)C1 (stereo not given) | 1.6 | -0.3 | -2.5 | 5 | 6 | 6 | 5.8 | 7% |
| NC(=O)N/N=C/c1cccc(C(F)(F)F)c1 | -35 | -0.1 | 8.6 | 3 | -13 | -2 | 2.2 | 10% |
| Cc1cc(C)nc(NC(=O)c2ccc(C)c(C)c2)n1 | 1.0 | -1.1 | -2.7 | -2 | -6 | -2 | 10 | nt |
| COc1ccc(C(=O)Nc2c(N)nc[nH]c2=O)cc1 | nt | 0.0 | 3.1 | 15 | -4 | -3 | -3.7 | nt |
| O=C(Nc1ncccn1)C1=C(O)c2ccccc2S(=O)(=O)N1Cc1ccccc1 | -0.4 | 0.9 | 1.3 | 2 | -8 | -1 | -4.1 | 4% |
| CC1=NN(Cc2ccccc2)C(=O)C1C(c1ccc(Cl)cc1)C(C#N)C#N (stereo not given) | 2.2 | 1.4 | -2.4 | -3 | -2 | 8 | -1.9 | nt |
| Cc1ccccc1CNC(=O)CN(c1ccccc1Cl)S(C)(=O)=O | 1.5 | 0.5 | -3.2 | -2 | 2 | -2 | 5.1 | nt |
| COc1cccc(NC(=S)NCCN2CCOCC2)c1 | nt | 0.2 | 5.7 | 8 | -1 | -14 | -0.6 | nt |

Assay outcomes deposited in PubChem BioAssay by several laboratories.
